Screening data from PubChem.
VACV mCherry inh: inhibitors of vaccinia virus infection (mCherry reporter signal). Vaccinia virus mCherry reporter infection, fluorescence; about a quarter of the inactives have no number. Potency, µM (titrated, usually from 36.5 µM), inactives show at the highest dose activity change, negative = inhibition, actives largely listed as inhibitors. 0.63% of 310,000 active; active = well fitted inhibition curve with a large enough effect; inconclusive = small, poorly fitted or top-dose-only effect; inactive = no such curve, though single readings can be large or run the other way; tested in A549 cells; note: nearly all actives have a fitted effect of over 35% in size; inactives centre near -10
Vaccinia Venus: vaccinia inhibition (Venus reporter). Potency, µM (series often up to 36.5 µM), inactives show at the top dose activity change, negative = inhibition, actives largely listed as inhibitors. 0.46% of 330,000 active. Vaccinia virus Venus reporter expression, fluorescence; active means well fitted inhibition curve with a large enough effect; inconclusive means small, poorly fitted or top-dose-only effect; inactive means no such curve, though single readings can be large or run the other way; tested in A549 cells; note: nearly all actives have a fitted effect of over 30% in size; inactives centre near -10
An asterisk follows results filed as active; i = inactive; ? = inconclusive; nt = no result given; [ ] = remark or other dose. % is set by controls: 0 for no effect and ±100 for the full control effect; potency is the fitted concentration of half-maximal effect.

SMILES	VACV mCherry inh	Vaccinia Venus
COc1ccc(CCNS(=O)(=O)CCNC(=O)c2ccc(OC)cc2)cc1	-5%	-7%
OC(CN1CCN(c2ccccc2Cl)CC1)c1ccccc1 (centres undefined)	?	-16%
CN(C)c1ccc(CNC(=O)Cn2c(=O)oc3cc(S(=O)(=O)N4CCCCCC4)ccc32)cc1	-29%	-19%
O=C(Nc1nnc([C@H]2C[C@H](O)[C@@H](CO)O2)s1)c1ccccc1F	i	-1%
Cc1cccc(Cn2cccc(C(=O)Nc3nc4ccccc4s3)c2=O)c1	-11%	-27%
CCCn1c(N)c(C(=O)CSc2nc(C3CC3)n(-c3ccccc3)n2)c(=O)[nH]c1=O	i	-12%
CCCN1CNc2c(c(=O)[nH]c(=S)n2CCc2ccc(OC)cc2)C1	i	-16%
O=C(NCc1nnc(SCC(=O)N2CCCc3ccccc32)n1-c1ccccc1)c1cccc2ccccc12	i	?
CCc1nn(CCCC(=O)N2CCN(c3cc(Cl)ccc3C)CC2)c(=O)c2cc3occc3n12	-17%	-18%
COc1ccc(NC(=O)CSc2nc(C)cs2)cc1OC	nt	-10%

Three successive records already listed, quoted:
SMILES	VACV mCherry inh	Vaccinia Venus
O=C(NCc1nnc(SCC(=O)N2CCCc3ccccc32)n1-c1ccccc1)c1cccc2ccccc12	i	?
CCc1nn(CCCC(=O)N2CCN(c3cc(Cl)ccc3C)CC2)c(=O)c2cc3occc3n12	-17%	-18%
COc1ccc(NC(=O)CSc2nc(C)cs2)cc1OC	nt	-10%

Next results:
SMILES	VACV mCherry inh	Vaccinia Venus
C#CCOCCOCCOCCNc1nc(N2CCN(C(=O)[C@H](CCC(=O)O)n3cc([C@@H](N)CC(N)=O)nn3)CC2)nc(N2CCN(C(=O)[C@H](CCC(=O)O)n3cc([C@@H](N)CC(N)=O)nn3)CC2)n1	i	-11%
COCCn1c(SCC(=O)NCC2CCCO2)nc2c([nH]c3ccccc32)c1=O (centres undefined)	0%	-1%
COc1cc(Cl)c(CC(=O)c2c[nH]c3ccccc23)cc1OC	0%	-22%
CC(C)(C)OC(=O)C[C@@H]1C/C=C\C[C@H](CC(=O)NCCO)C(=O)N[C@H](Cc2ccccc2)COC1=O	-8%	4%
C/C(CC(=O)Nc1ccc2c(c1)OCCO2)=N\NC(=O)COc1ccc(C)cc1Br	-3%	-10%
COc1ccc2c(c1)c(=O)oc1c(C)c(OCC(=O)N3CCc4ccccc4C3)ccc12	-12%	-9%
CCc1c(C)nc2c(C)cccc2c1SCCC#N	i	-10%
O=C(N/N=C/c1ccc2c(c1)OCO2)c1ccc(Cl)cc1Cl	?	1%
COC(=O)C1=C(c2ccc(OC(F)(F)F)cc2)C[C@@H]2CC[C@H]1N2C(=O)NC1Cc2ccccc2C1	30%[activator]	19%
COc1ccc(CNC(=O)c2ccc(-c3cnn(C)c3)c3ccoc23)cc1OC	25%	-16%
Cc1cccc(Nc2nnc(-n3nc(C)cc3C)c3ccccc23)c1	-13%	2%
Cc1cc(C)cc(Nc2c(F)c(F)c(F)c(F)c2C(=O)O)c1	i	-13%
Cc1ccc(CC(=O)Nc2ccc(S(=O)(=O)Nc3ncccn3)cc2)cc1	-2%	-2%
CCOc1cc(S(=O)(=O)n2c(C)nc3ccccc32)ccc1F	nt	-28%
CC1CC(O)[C@]2(O)[C@]13CC(=O)OC[C@@]2(C)[C@@](C)(O)C(=O)C3 (some centres undefined)	-5%	-11%
COc1ccc(Cl)cc1C(=O)Nc1ccc(OCC(=O)N2CCOCC2)cc1	3%	-2%
COc1ccc(Br)cc1S(=O)(=O)Nc1cccc(C)n1	0%	-1%
Cc1ccc(S(=O)(=O)c2cnc(SCC(=O)Nc3ccc4c(c3)OCCO4)[nH]c2=O)cc1Cl	-6%	5%
Cc1cnc2ccc(F)cc2c1	8%	-10%
C#CCN1C=CC(=O)[C@@H](OC(=O)NCCC)[C@H]1c1ccccc1Br	-29%	-6%
S=C(NCCCn1ccnc1)Nc1cccc(Cl)c1	-18%	-12%
CCCOc1ccc(/C=N/Nc2ccccc2[N+](=O)[O-])c(O)c1	-14%	-2%
CC1(C)Cc2c(sc3c2c(=N)n(Cc2ccco2)c(=O)n3Cc2ccc(F)cc2)CO1	nt	?
CSc1ccc(CN(C)C(=O)c2ccc(S(=O)(=O)Nc3ccccc3)cc2)cc1	-8%	-28%
COC(=O)C1=C(C)Nc2nc3ccccc3n2C1c1ccccc1F (centres undefined)	i	-14%
CCCn1nc(NC(=O)CC)c2cc3cccc(C)c3nc21	-19%	-27%
COC(=O)c1cc(NC(=O)CN2CCC(C(N)=O)(N3CCCCC3)CC2)cc(C(=O)OC)c1	-12%	-5%
Cc1ccc(C)c(S(=O)(=O)c2c(C)cc(C)nc2Cl)c1	-9%	-8%
COc1ccc(CNCCC(c2ccc(OC)cc2)c2ccccc2OC)cc1 (centres undefined)	i	-26%
O=C1c2ccccc2C(c2nnnn2-c2ccc3ccccc3c2)N1C1CC1 (centres undefined)	2%	-1%
O=C(Nc1nnc(C2CC(=O)N(c3ccc(Cl)cc3)C2)s1)c1ccco1 (centres undefined)	2%	-7%
CCN1CCN(c2nc3c(c(=O)[nH]c(=O)n3C)n2CCSc2nc3ccccc3s2)CC1	-11%	-9%
CCOc1ccc(S(=O)(=O)N(CC(=O)N/N=C/c2ccc(-c3ccc([N+](=O)[O-])cc3)o2)c2ccccc2)cc1	nt	?
NC(Cc1c[nH]c2ccccc12)C(=O)Nc1ccccc1 (centres undefined)	-5%	6%
CC(C)NCC(O)COc1ccc2c(c1)CCC2 (centres undefined)	-4%	-11%
C=CC[C@@H](CC(=O)N(CCO)Cc1ccccc1)C(=O)NCCOC(=O)[C@H](CC=C)CC(=O)OC(C)(C)C	-20%	-23%
COCCNc1nnc(SCC(=O)c2cc(C)n(C3CC3)c2C)s1	i	-13%
O=C(c1cc(-c2cccs2)on1)N1CCCCC1	-8%	-19%
O=C(NCc1ccc(Cl)cc1)c1cnc2sc(N3CCOCC3)nn2c1=O	-2%	-1%
COc1ccc(C(C)NC(=O)c2ccccc2Cl)cc1OC (centres undefined)	i	-4%
CCCCCn1c(CNC(=O)CCC)nc2ccccc21	i	-5%
O=C(CCc1nnc(CCCCc2ccccc2)o1)N1CCN(CCO)CC1	-6%	-15%
O=C(c1cc2c(s1)-c1ccccc1S(=O)(=O)C2)N1CCN(Cc2ccccc2)CC1	?	?
OC[C@@H]1CN(Cc2ccc(-c3ccccc3)cc2)C[C@H](n2cnc3c(Nc4ccccc4)ncnc32)O1	?	-28%
COc1ccccc1CN1CC(C(=O)N(C)Cc2ccncc2C)CCC1=O (centres undefined)	-14%	-6%
O=C(c1cccs1)N1CCc2ccccc2C1	-9%	-3%
O=S(=O)(Nc1ccc(O)cc1)c1cccc2cccnc12	4%	-6%
CCn1c(SCC(=O)c2c(N)n(C3CC3)c(=O)[nH]c2=O)nnc1-c1ccccc1OC	i	-8%
CCOC(=O)c1[nH]cc(-c2ccccc2)c1N1CCOCC1	-12%	-16%
Cc1nc(NC(=O)CSc2nnc(C)n2CC2CCCO2)sc1C (centres undefined)	-16%	-8%

The listing continues:
SMILES	VACV mCherry inh	Vaccinia Venus
Cc1ccc(SC(C)c2nc(-c3ccccc3)no2)cc1 (centres undefined)	-13%	-6%
CCOC(=O)CNS(=O)(=O)c1cc(-c2n[nH]c(=O)c3ccccc23)ccc1C	-15%	-12%
CCC12CN(C(=O)c3ccc(C)cc3)CC(CC)(CN(C(=O)c3ccc(C)cc3)C1)C2=O	i	-4%
CCCCc1nc(NCc2ccccc2)c(C#N)c2c1CCCC2	-1%	-15%
CCOCc1nnc(NC(=O)c2cc(C(=O)OC)cc([N+](=O)[O-])c2)s1	-6%	0%
C[C@@H]1CN([C@@H](C)CO)C(=O)CCCn2cc(nn2)CO[C@H]1CN(C)S(=O)(=O)c1ccc(Cl)cc1	-10%	-25%
CCC(CC)c1nnc(NC(=O)C2=COCCO2)s1	-12%	-12%
Cc1cc(Cl)c(C)c(S(=O)(=O)N2CCN(C(=O)C3CCCO3)CC2)c1Cl (centres undefined)	-2%	-5%
O=C(c1ccccc1)N1CCCCC1CCN1CCCCC1 (centres undefined)	-14%	-12%
Cc1ccc(C(=O)CSc2ccc(-c3ccncc3)nn2)cc1	-4%	-4%

Whole records as entered above. Order of screens: VACV mCherry inh, Vaccinia Venus
`Cc1cc(Cl)c(C)c(S(=O)(=O)N2CCN(C(=O)C3CCCO3)CC2)c1Cl` (centres undefined) is listed as -2%, -5%
`CCC(CC)c1nnc(NC(=O)C2=COCCO2)s1` is listed as -12%, -12%
`CCOC(=O)CNS(=O)(=O)c1cc(-c2n[nH]c(=O)c3ccccc23)ccc1C` is listed as -15%, -12%
`Cc1ccc(SC(C)c2nc(-c3ccccc3)no2)cc1` (centres undefined) is listed as -13%, -6%
`O=C(c1ccccc1)N1CCCCC1CCN1CCCCC1` (centres undefined) is listed as -14%, -12%

Other results follow:
SMILES	VACV mCherry inh	Vaccinia Venus
CC(=O)Nc1ccc(C(=O)N/C(=C/c2ccccc2)C(=O)Nc2cccc(C(=O)O)c2)cc1	i	2%
Cc1cccc(NC(=S)Nc2c(C)n(C)n(-c3ccccc3)c2=O)c1C	-1%	1%
O=C(NCc1ccco1)C(=O)c1cn(CC(=O)N2CCCCCC2)c2ccccc12	i	-8%
O=C(NCc1ccco1)c1ccc2ccccc2n1	-23%	-8%
Cc1ccc(-c2nc(C)c(C(=O)O)s2)cc1	i	-8%
Nc1nnn(Cc2ccccc2)n1	nt	-3%
CCNC(=O)c1sc(=S)n(-c2ccc(C)cc2)c1N	?	-14%
Cc1ccc(C)c(N(C(=O)CNC(=O)c2ccco2)C(C(=O)NC2CCCCC2)c2cccnc2)c1 (centres undefined)	-8%	2%
O=C(c1cc2ccccc2o1)N1CCN(c2cccc(Cl)c2)CC1	i	-4%
O=C(c1cccnc1)N1CCN(CCCc2ccccc2)CC1	-9%	-3%

Reformatted: entries from further up
Molecule | VACV mCherry inh | Vaccinia Venus
O=C(NCc1ccco1)C(=O)c1cn(CC(=O)N2CCCCCC2)c2ccccc12 | i | -8%
O=C(NCc1ccco1)c1ccc2ccccc2n1 | -23% | -8%
Cc1ccc(-c2nc(C)c(C(=O)O)s2)cc1 | i | -8%

(listing goes on)
SMILES	VACV mCherry inh	Vaccinia Venus
COc1ccccc1-c1cc(C(F)(F)F)nc(S(=O)(=O)CCCC(=O)Nc2cc(C)ccc2O)n1	-8%	9%
Cc1ccc(C)c(S(=O)(=O)Nc2ccc(-n3cnnn3)cc2)c1	-11%	-23%
NC(=O)C1(C(N)=O)OC1c1ccc(Cl)cc1Cl (centres undefined)	-22%	4%
COc1ccc(C(=O)N/C(=C/c2ccco2)C(=O)NC2CCS(=O)(=O)C2)cc1 (centres undefined)	i	-3%
CN(CCc1ccccc1)c1cc2c(c3c1ccn3C)C1CCC2O1 (centres undefined)	-2%	-25%
CSc1nc(C(=O)NCc2nc(-c3cccc(NC(=O)c4ccccn4)c3)oc2C)cs1	-13%	-2%
CC(C)c1ccccc1NC(=S)NC(C)c1ccccc1 (centres undefined)	?	-15%
c1ccc2c(c1)sc[n+]2CCC1CCCCC1	-7%	-6%
COc1ccccc1Nc1nc(-c2ccccc2O)nc2ccccc12	i	-9%
CCC(C)(C)NC(=O)C(c1cccs1)N(CC1CCCO1)C(=O)Cn1nnc2ccccc21 (centres undefined)	nt	-12%
CN1Cc2cc(C(=O)c3ccccc3O)cnc2NC1=O	-5%	-4%
CCOC(=O)C1CCCN(C(=O)c2ccccc2SCCOC)C1 (centres undefined)	-9%	-2%
Cc1ccc2cc(CCNC(=O)c3cc4ccccc4o3)c(=O)[nH]c2c1C	i	-4%
CC(C)(Oc1ccc(Cl)cc1)C(=O)OCC(=O)N1CCN(c2ccccc2)CC1	-20%	-9%
COC(=O)CCNC(=O)Cc1c(C)n(C(=O)c2ccc(Cl)cc2)c2ccc(OC)cc12	3%	-7%
CCN1C(=O)[C@H]2[C@@H](c3ccc(Cl)cc3)N3C(=O)CN(CCOC)C(=O)[C@@]3(Cc3ccccc3)[C@H]2C1=O	-13%	1%
Cc1ccc(C)c(NC(=O)Cn2c(=O)n(-c3ccc(CC(=O)NCC4CCCO4)cc3)c(=O)c3ccccc32)c1 (centres undefined)	-3%	1%
CC(Oc1ccc(Br)cc1)C(=O)Nc1ccc(N2CCOCC2)cc1N1CCOCC1 (centres undefined)	-22%	-19%
CCOc1ccc(-c2nc[nH]c2[N+](=O)[O-])cc1	-14%	-7%
COc1ccc(C=O)cc1COc1ccc(C)cc1[N+](=O)[O-]	i	-12%
CCCc1nnc(SCC(=O)N2CCCCC2)n1CCCOC	-6%	-5%
Cc1nnnn1/C(=C\c1ccccc1)C(=O)OCC(=O)N1CC2(C)CC1CC(C)(C)C2 (centres undefined)	?	?
O=C(CSc1ccccc1)N1CCN(c2ccccc2)CC1	3%	16%
COc1cc(NC(=O)Cc2c(C(=O)O)[nH]c3ccccc23)cc(OC)c1OC	-11%	-8%
COc1cc(-c2cnc3ccccc3c2)cc2c1OCCN(C(=O)CCC(=O)c1ccc(F)cc1)C2	-8%	-2%
COCCNC(=O)Cn1nc(C(F)(F)F)c(Br)c1C	-20%	-7%
CCOC(=O)CN1C(=O)NC2(CCCc3ccccc32)C1=O (centres undefined)	-17%	4%
CC(=O)CC1c2cc(F)ccc2C=C(c2ccsc2)N1c1ccc(C#CC2(O)CCCCC2)cc1 (centres undefined)	-18%	-6%
COc1ccc(NC(=O)Cn2c(=O)n(Cc3ccco3)c(=O)c3oc4ccccc4c32)cc1Cl	-19%	-11%
CCCC[N+]12CCC(CC1)C(Cc1ccccc1)C2 (centres undefined)	2%	37%[activator]

An unsorted share of the library. Share with any hit: about 0.82%.
